# E coli growth = blocks Escherichia coli growth; OD600, 23 h; active compounds read low; AID 1053175; 0.21% of 330,000 active; OD600 absorbance (no concentration beside the values);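 active = OD600 absorbance below the run mean of sample wells minus 3.6 SD, in any replicate, cut at about 0.56 in these data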;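 note: stock transfer was 300 nL into about 60 µL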
# Beta cell apopt = beta cell apoptosis inhibition; 0.8% of 300,000 active; INS-1E cytokine-induced death, ATP luminescence, 48 h; percent of positive-control rescue, neutral wells zero; AID 435005; protection from apoptosis, % (test concentration not listed);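 active = all replicates at 75% or more, or half of them and the mean; inconclusive = half reach 75% but not the mean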;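 note: 0% = cytokine-treated negative control wells and 100% = positive control rescue; higher means more ATP so stronger rescue from cytokine killing; wells of about 40 µL received 100 nL stock; the first replicate is given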
# Bfl-1 A1 inh = inhibitors of the anti-apoptotic protein A1, read as caspase activation. MEF A1-2A-BIM cells, Caspase-Glo 3/7 luminescence, 3 h; percent of clofoctol response, vehicle zero. caspase activation, % (concentration not given with the values). AID 2462. 0.066% of 330,000 active;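 active = over half of replicate activation scores above 10%, or exactly half above 10 with the replicate mean above 10; inconclusive = replicate mean below 10 yet half the replicates above 10; inactive = over half of replicates below 10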;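 note: wells of about 30 µL received 50 nL stock; many hits fall short of the cut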
# rRNA inh HTS = inhibitors of bacterial rRNA selective over humanized ribosomes; E. coli WT GFP vs humanized-ribosome RFP mutants, fluorescence, 24 h; active compounds read low; DMSO median 0, no signal -100; GFP signal change (wild-type ribosome), % (no concentration beside the values); AID 720706; 1.6% of 350,000 active;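 active = significant combined selectivity score with lowered wild-type GFP, culture density cut under 30%, mutant RFP and density less affected; inactive = any of these conditions unmet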; note: one replicate is shown; some compounds called inactive have numbers as strong as hits
# FGF22 binding = FGF22 (human) thermal shift binding | recombinant FGF22 thermal shift, SYPRO orange fluorescence; percent of sucrose octasulfate shift, DMSO zero | calls only at 9.99 µM | 1.5% of 340,000 active | AID 651658;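 active = melting point raised past a set limit in the mean and every replicate; inconclusive = no clear call; three in four hits are not shown here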
# Target sequence (Q9HCT0 whole entry, looked up): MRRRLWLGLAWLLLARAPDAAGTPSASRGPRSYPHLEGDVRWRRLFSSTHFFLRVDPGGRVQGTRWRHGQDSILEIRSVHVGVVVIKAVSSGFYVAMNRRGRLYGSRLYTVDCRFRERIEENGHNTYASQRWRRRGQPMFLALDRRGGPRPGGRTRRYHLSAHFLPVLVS
# T cruzi repl = blocks replication of Trypanosoma cruzi | 1.4% of 300,000 active | inhibition, % (test concentration not listed) | T. cruzi beta-gal in NIH3T3, luminescence, 90 h;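 active = mean inhibition across valid replicates above about 55%, limit read from the data; inconclusive = mean below that limit but half or more replicates reach it; inactive = mean below it, under half of replicates reach it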;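 note: signal also drops with host cell toxicity which is not excluded here; 0% = plate median of DMSO wells and 100% = zero luminescence signal; higher percent means less beta-gal luminescence so fewer parasites; stock transfer was 50 nL into about 50 µL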
# MLL AF4-AF9 inh = blocks AF4 peptide binding to human AF9 | P42568 | AlphaScreen, biotin-AF4 peptide binding to FLAG-AF9 | inhibition, % at 10 µM | 0.47% of 350,000 active | AID 651704;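 active = every replicate reaching a set inhibition limit, whatever the replicate mean, cut at about 25% in these data; inconclusive = mean inhibition reaches that limit but some replicates miss it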;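 note: 0% = plate neutral control median and 100% = total signal loss; the record names both 10 and 1 µM as test concentration; the first replicate is given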
# Target sequence (P42568 whole entry, looked up): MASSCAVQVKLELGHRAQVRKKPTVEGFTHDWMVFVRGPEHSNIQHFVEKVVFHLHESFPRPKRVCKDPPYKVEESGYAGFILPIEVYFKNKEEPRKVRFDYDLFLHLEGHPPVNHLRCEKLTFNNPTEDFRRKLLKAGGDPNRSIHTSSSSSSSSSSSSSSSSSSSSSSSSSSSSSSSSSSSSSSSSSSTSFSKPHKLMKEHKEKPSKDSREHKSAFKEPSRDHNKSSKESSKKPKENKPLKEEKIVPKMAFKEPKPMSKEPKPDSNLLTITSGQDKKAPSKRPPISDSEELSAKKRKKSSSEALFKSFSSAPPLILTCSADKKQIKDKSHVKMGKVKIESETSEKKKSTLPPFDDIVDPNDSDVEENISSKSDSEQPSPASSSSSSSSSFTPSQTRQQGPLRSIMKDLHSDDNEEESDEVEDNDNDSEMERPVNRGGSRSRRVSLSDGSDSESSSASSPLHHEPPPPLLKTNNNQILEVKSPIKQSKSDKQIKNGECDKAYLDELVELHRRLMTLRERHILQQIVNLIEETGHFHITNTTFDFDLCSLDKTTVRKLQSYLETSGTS
# UCH37 DUB inh = human UCH37 deubiquitinating enzyme inhibition. Q9Y5K5. 0.33% of 330,000 active. inhibition, % (test concentration not listed). purified proteasome/UCH37, Ub-AMC cleavage fluorescence;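 active = mean of two replicates above 20%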;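 note: 0% = compound-free wells with enzyme and 100% = wells lacking proteasome; stock transfer was 100 nL into about 20 µL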
# Target sequence (Q9Y5K5 whole entry, looked up): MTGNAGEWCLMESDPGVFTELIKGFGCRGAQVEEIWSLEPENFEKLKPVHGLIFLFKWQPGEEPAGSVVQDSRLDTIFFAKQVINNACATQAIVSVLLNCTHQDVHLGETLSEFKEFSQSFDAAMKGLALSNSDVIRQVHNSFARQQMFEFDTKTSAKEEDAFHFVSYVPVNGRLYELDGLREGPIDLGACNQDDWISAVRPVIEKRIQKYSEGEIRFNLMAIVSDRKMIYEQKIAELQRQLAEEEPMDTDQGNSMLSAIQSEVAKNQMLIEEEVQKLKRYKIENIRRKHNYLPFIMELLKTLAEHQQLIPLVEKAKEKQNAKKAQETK
#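 Schedule: 30 min plus 25 min, room temperature / Material: human UCH37 within purified proteasomes / Technique: AMC fluorescence intensity at 355/460 nm / Buffer or medium: pH 7.4 Tris-HCl (50 mM) with ovalbumin, ATP-MgCl2, DTT / Controls: wells without proteasome as full block, compound-free enzyme plus substrate as uninhibited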
# rRNA inh HTS OD600 = second read-out of rRNA inh HTS, no call of its own (marks repeat the call); OD600 change, %; measured here: OD600 growth;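 optical density of the mix in the first replicate; 0 = DMSO median and -100 = no signal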
# rRNA inh HTS RFP = recorded beside rRNA inh HTS, whose call it bears; RFP signal change, %; measured here: RFP humanized mutant strains;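 first replicate; 0 = DMSO median and -100 = no signal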
# The depositor's hits bear a star; i = inactive; ? = inconclusive; nt = no result given; + = active, no number. This is a subset; the hit share may differ from the screen's.
SMILES,E coli growth,Beta cell apopt,Bfl-1 A1 inh,rRNA inh HTS,rRNA inh HTS OD600,rRNA inh HTS RFP,FGF22 binding,T cruzi repl,MLL AF4-AF9 inh,UCH37 DUB inh
CCN(CC)c1ccc(/C=C(\C#N)C(=O)c2ccc(Br)cc2)cc1,0.77,-2,-0.7,nt,nt,nt,nt,-111,nt,13
COc1ccc(S(=O)(=O)NCC(c2ccc3c(c2)OCO3)N2CCOCC2)cc1 (centres undefined),0.69,-1,0.3,4,7,1.0,i,2,-1.9,2.3
O=C(Nc1ccc(Cl)cc1)N1CCC(c2nc(-c3cccs3)no2)CC1,0.59,-2,1.6,nt,nt,nt,nt,10,nt,5.3
CC(SCc1ccccc1)C(=O)Nc1ccccc1F (centres undefined),0.7,-3,0.1,9,4,2.9,i,2,-0.6,1.6
O=C(CCN1C(=O)CSc2ccccc21)Nc1cccc(C(F)(F)F)c1,0.68,3,-0.1,-24,-53,-5.8,i,nt,0.6,3.6
CN(C(=O)Cn1cc(C(F)(F)F)ccc1=O)c1c(N)n(Cc2ccccc2)c(=O)[nH]c1=O,0.68,0,-0.4,6,8,-2.2,i,-10,-8.1,2.5
Cc1ccc(C)c(OCC(=O)NNC(=O)CSC(=S)N2CCCC2)c1,0.71,4,1.2,7,10,-0.5,i,0,1.5,5.4
Clc1ccccc1-c1nn2c(Cn3cnc4ccccc43)nnc2s1,0.71,-6,-1.0,nt,nt,nt,nt,5,nt,3.7
COc1cccc(-c2nc(N3CCCC3)c3ccccc3n2)c1O,0.71,4,-0.5,5,3,-2.6,i,22,-1.6,2.1
Cc1ccc(Cl)cc1N1CCN(C(=O)Cc2csc(Nc3nc(=S)[nH]c4ccccc34)n2)CC1,nt,12,0.4,0,1,6.0,i,34,0.4,nt
CCOC(=O)c1cc2c(nc1C)-c1cc(Cl)cc(Cl)c1OC2O (centres undefined),0.67,2,0.9,0,-4,-2.1,i,-8,-0.7,-3.0
CC1(C(=O)O)Cc2ccccc2C(=O)O1 (centres undefined),0.73,-3,0.3,nt,nt,nt,nt,-33,nt,5.3
CCCNc1nc2c(c(=O)[nH]c(=O)n2C)n1Cc1ccc(F)cc1,0.71,10,-0.1,12,11,0.6,i,-2,1.4,-0.9
NC(=O)c1cc([N+](=O)[O-])ccc1NCCc1ccccc1,0.71,-2,2.4,14,0,-2.1,i,-6,3.3,4.1
Cc1cc(N=Nc2ccc3ccccc3c2)ccc1O,0.61,13,-5.6,-54,-78,-17,i,-17,35*,8.7

# Looked up above.
# Under Beta cell apopt, `O=C(CCN1C(=O)CSc2ccccc21)Nc1cccc(C(F)(F)F)c1` reads 3
# Under UCH37 DUB inh, `Clc1ccccc1-c1nn2c(Cn3cnc4ccccc43)nnc2s1` reads 3.7

# Continued.
SMILES,E coli growth,Beta cell apopt,Bfl-1 A1 inh,rRNA inh HTS,rRNA inh HTS OD600,rRNA inh HTS RFP,FGF22 binding,T cruzi repl,MLL AF4-AF9 inh,UCH37 DUB inh
O=C1CC(c2ccc(F)cc2)Cc2nc(NCC3CCCO3)ncc21 (centres undefined),0.71,-3,-0.8,nt,nt,nt,nt,-15,3.8,-0.9
O=C(NCc1ccc2c(c1)OCO2)c1cc(=O)[nH]c2ccccc12,0.68,-3,0.3,11,6,-2.7,i,-4,-0.1,-6.2
Cc1ccc(S(=O)(=O)N2CCCCC2)cc1C(=O)NCCN1CCOCC1,0.71,-6,-0.3,3,13,-4.6,i,nt,-20,0.4
CCn1cc(C2=NOC(C(=O)Nc3c(C)nn(Cc4ccc(F)cc4)c3C)C2)c(C)n1 (centres undefined),0.7,nt,nt,-3,5,3.7,i,-5,-8.7,3.8
C/C(=N\NC(=O)CNC(=O)c1ccco1)c1ccc(Br)cc1,nt,2,0.5,-3,-12,3.4,i,-3,-4.9,nt
Cc1ccc(CNC(=O)NCc2ccccc2)cc1,0.69,1,0.5,12,10,0.9,i,-5,0.3,5.6
Cc1ccc(NC(=O)Nc2cccc(C)n2)cc1,0.69,-4,-5.5,7,14,-3.0,i,-8,-1.6,0.9
Cc1ccc(/C=C/C(=O)NCc2ccco2)o1,0.68,-4,0.2,nt,nt,nt,nt,-20,nt,4.0
O=C(CSc1n[nH]c(=O)[nH]c1=O)Nc1ccc(C(=O)O)cc1,0.68,1,0.5,16,6,0.7,i,-10,-3.9,2.1
Cc1ccc(C(=O)COC(=O)CCN2C(=O)C3C4CC(C(Br)C4Br)C3C2=O)cc1 (centres undefined),0.68,-4,0.1,nt,nt,nt,nt,-24,nt,5.8
O=C(CSc1nccc(-c2cccs2)n1)Nc1ccc(F)c(Cl)c1,0.63,-4,0.1,nt,nt,nt,i,-11,0.4,0.8
COc1ccc(S(=O)(=O)N2CCC(N3CCN(c4ccccc4)CC3)CC2)cc1,0.74,4,0.5,nt,nt,nt,nt,-9,nt,4.7
O=C1CC(c2cccc([N+](=O)[O-])c2)c2ccc3ccccc3c2N1 (centres undefined),0.65,3,-0.2,nt,nt,nt,nt,5,nt,4.0
COc1ccccc1Oc1ccc2c(c1)C(=O)N(CC(=O)O)C2=O,0.6,nt,0.6,2,-1,-1.6,nt,-8,nt,3.8
Cc1ccc2c(c1)N=C(c1ccc(F)cc1)CO2,0.69,4,-6.2,nt,nt,nt,nt,nt,nt,6.7
O=C(NCCc1ccccc1F)C(=O)Nc1nccs1,0.68,0,-2.5,nt,nt,nt,nt,-8,nt,-14
COC(=O)C1=NN(c2ccccc2)C2(S1)S/C(=C\c1ccccc1)C(=O)N2c1ccccc1 (centres undefined),nt,-9,-0.9,nt,nt,nt,nt,-8,nt,1.3
COc1ccc(/C(O)=C2\C(=O)C(=O)N(Cc3ccco3)C2c2cc(OC)ccc2OC)cc1 (centres undefined),0.67,-5,?,nt,nt,nt,nt,-2,nt,11
O=S(=O)(c1ccc2[nH]ccc2c1)N1CCCCCC1,0.69,-6,0.4,-26,-26,1.6,i,3,-1.2,5.7
NC(=S)NN=C1CCCCC12CCCC2,0.69,nt,nt,2,13,0.1,i,nt,-1.1,4.3
COc1ccc(N2C(=O)c3ccccc3C2=O)cc1,0.69,-3,-0.2,-3,18,-1.5,i,-15,-0.7,4.8
O=C(Nc1cccc(Cl)c1Cl)c1ccncc1,0.7,-4,0.9,nt,nt,nt,nt,-16,nt,3.2
CC1Cc2cc(/C(O)=C3/C(=O)C(=O)N(CCN4CCOCC4)C3c3cccc(O)c3)ccc2O1 (centres undefined),0.63,-6,0.3,nt,nt,nt,nt,-5,nt,2.0
CC1=Nc2ccccc2/C1=C/c1sc(=O)n(CC(=O)N2CCCC2)c1O,0.7,2,-0.5,nt,nt,nt,nt,9,nt,5.0
Cc1ccc(NC(=O)c2cc(-c3ccco3)on2)cc1C,0.72,-2,-3.2,nt,nt,nt,nt,-7,nt,-17
COc1ccc(NC(C)=O)cc1NC(=O)CN1CCN(S(=O)(=O)c2ccc(C(C)C)cc2)CC1,0.77,-1,-0.8,nt,nt,nt,nt,-10,nt,3.6
COc1ccc(C)cc1NC(=O)CCN1CCN(c2ccccc2)CC1,0.6,0,1.5,-1,3,1.1,i,3,4.5,0.9
CCC(C)C(=O)N1CCc2cc(-c3csc(N)n3)ccc21 (centres undefined),0.72,1,-4.7,nt,nt,nt,nt,15,nt,2.9
COc1ccc(NC(=O)c2cc([N+](=O)[O-])ccc2NC(=O)CNCc2ccccn2)c(OC)c1,0.67,2,0.6,3,11,2.0,i,15,5.8,2.1
Cn1cc(CCNC(=O)C2CCC(=O)N(CCc3ccc(Cl)cc3)C2)cn1 (centres undefined),0.7,-2,-0.4,15,9,1.2,i,-3,-0.1,0.0

# Part of the list above with just Beta cell apopt.
Molecule,Beta cell apopt
COc1ccc(/C(O)=C2\C(=O)C(=O)N(Cc3ccco3)C2c2cc(OC)ccc2OC)cc1 (centres undefined),-5
CCC(C)C(=O)N1CCc2cc(-c3csc(N)n3)ccc21 (centres undefined),1
COC(=O)C1=NN(c2ccccc2)C2(S1)S/C(=C\c1ccccc1)C(=O)N2c1ccccc1 (centres undefined),-9

# Further structures.
SMILES,E coli growth,Beta cell apopt,Bfl-1 A1 inh,rRNA inh HTS,rRNA inh HTS OD600,rRNA inh HTS RFP,FGF22 binding,T cruzi repl,MLL AF4-AF9 inh,UCH37 DUB inh
O=C(/C=C/c1ccc2c(c1)OCO2)Nc1ccc(Cl)cn1,0.69,17,-4.4,11,11,2.6,i,14,-1.6,-10
CCN1C(=O)[C@H]2[C@@H](c3ccc(-c4ccccc4)cc3)N3CCCC[C@@]3(C(=O)OC)[C@H]2C1=O,nt,0,0.3,-4,-3,-2.3,i,-29,5.8,0.7
O=C(C1=C[C@@H](c2coc3ccccc3c2=O)C[C@@H](OCc2ccc(CO)cc2)O1)N1CCCCCCC1,0.79,-1,0.6,nt,nt,nt,nt,8,nt,-0.3
Fc1ccc(Nc2c3c(nc4ccccc24)CCC3)cc1,0.63,nt,0.2,-16,-25,-5.8,+,58*,5.9,-6.6
Cc1cc(-c2ccc(C)c(S(=O)(=O)NCCCN(Cc3ccccc3)C(C)C)c2)on1,0.68,-8,-1.4,-6,-18,1.2,i,13,-1.7,2.8
NC(=O)CC(NC(=O)Cc1cccc2ccccc12)c1ccc(NCC2CC2)c([N+](=O)[O-])c1 (centres undefined),0.69,nt,0.3,nt,nt,nt,nt,-10,nt,0.0
CCC(=O)c1c[nH]c(C(=O)N2CCOCC2)c1,0.67,1,-0.2,2,-2,-0.8,i,-1,-0.5,-0.7
CCOc1ccc(-c2nnc(SCc3nnc(-c4ccccc4)o3)n2-c2ccccc2F)cc1,0.74,9,0.6,nt,nt,nt,nt,17,nt,3.2
O=C(c1ccc(Cl)cc1)c1cn[nH]c1-c1ccccc1O,0.71,-8,-0.8,nt,nt,nt,nt,-21,nt,3.0
O=c1c(Cc2ccccc2)c(O)nc2n1CCCS2,nt,-2,0.8,nt,nt,nt,nt,-4,nt,7.0
O=C(CN1CCCCCC1)Nc1cc(C(F)(F)F)ccc1Cl,0.72,0,-0.2,2,3,-2.4,i,7,-1.0,2.0
COc1cc(S(=O)(=O)n2cnc(C)c2)ccc1Br,0.65,nt,1.2,7,0,0.9,i,-7,-1.0,0.1
CCCn1nc([N+](=O)[O-])c(C(C#N)c2nc3ccccc3s2)c(Cl)c1=O (centres undefined),0.72,33,-0.9,nt,nt,nt,nt,1,nt,5.5
CCOc1ccc(NC(=O)N(CC(C)C)CC(C)C)cc1,0.71,-3,0.7,nt,nt,nt,nt,-13,nt,2.9
CN1CCN(c2nnc(-c3ccc(Cl)cc3)c3ccccc23)CC1,0.66,-2,-0.1,-2,-6,1.3,i,8,0.7,-0.1
O=C(N/N=C/c1cccn1-c1ccc(O)cc1)c1cccc2ccccc12,nt,-9,2.1,-14,-12,4.0,i,-4,-2.4,nt
CN(C)S(=O)(=O)c1cccc(NC(=O)COC(=O)COc2ccccc2[N+](=O)[O-])c1,0.68,-11,-0.4,9,-5,0.4,i,-13,-14,5.3

# Source: PubChem BioAssay
